Rango release inh: prevents RanGTP from dissociating the Rango-importin beta complex; O95149+P62826; 340,000 tested, 0.071% active; Potency, µM (titrated, usually from 46.1 µM), for the others: at the top dose activity change, negative = inhibition; AID 540253; Biochemical FRET Rango-importin beta, RanGTP-induced dissociation; active means falling FRET ratio curve, often poorly fitted, with flat reads before Ran was added; inconclusive means other falling curves, or compound fluorescence or quenching; inactive means flat or rising ratio curve;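 note: potency is the fitted concentration of half-maximal effect; % of control where 0% means no effect; nearly all actives have a fitted effect of over 45% in size; -100% = wells without RanGTP and RCC1; the record marks most hits as doubtful in a second field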
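Two FRET readings bracket the reaction: one 5 min after compound meets Rango–importin beta, another 45 min after RanGTP-RCC1 (0.6 uM Ran, 0.2 uM RCC1, 2 mM GTP) is added. Only the second defines inhibition.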
miR-21 reporter: miR-21 reporter, rising signal; AID 2288; Potency, µM (series often up to 38.3 µM), for inactives: at the top dose reporter change, positive = more light; HeLa miR-21 FLuc reporter, luciferase, 48 h; 340,000 tested, under 10 active; active = well fitted rising curve with a large enough effect; inconclusive = small, poorly fitted or top-dose-only effect; inactive = no such curve, though single readings can be large or run the other way;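 note: % of control where 0% means no effect; miR-21 action dims this reporter so a rising signal means less miR-21 action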
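Luminescence from a firefly luciferase reporter carrying a miR-21 binding site downstream, stably expressed under a CMV promoter in HeLa cells that make miR-21 endogenously, reports miRNA modulation after 48 h compound exposure up to approximately 40uM final.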
GLA inh pH 4.5: blocks human alpha-galactosidase A at pH 4.5 | P06280 | purified enzyme, 4-MU-alpha-Gal fluorescence, pH 4.5 | activity change, negative = inhibition, % at 105 µM | 230,000 tested, under 10 active; inconclusive = small, poorly fitted or top-dose-only inhibition, or a rising curve; inactive = flat fitted curve, though single readings scatter; no compound was filed as active;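 note: 0% = full activity with enzyme and -100% = basal without enzyme; dose as in the result columns while the protocol names 77 µM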
Target sequence (P06280 whole entry, looked up): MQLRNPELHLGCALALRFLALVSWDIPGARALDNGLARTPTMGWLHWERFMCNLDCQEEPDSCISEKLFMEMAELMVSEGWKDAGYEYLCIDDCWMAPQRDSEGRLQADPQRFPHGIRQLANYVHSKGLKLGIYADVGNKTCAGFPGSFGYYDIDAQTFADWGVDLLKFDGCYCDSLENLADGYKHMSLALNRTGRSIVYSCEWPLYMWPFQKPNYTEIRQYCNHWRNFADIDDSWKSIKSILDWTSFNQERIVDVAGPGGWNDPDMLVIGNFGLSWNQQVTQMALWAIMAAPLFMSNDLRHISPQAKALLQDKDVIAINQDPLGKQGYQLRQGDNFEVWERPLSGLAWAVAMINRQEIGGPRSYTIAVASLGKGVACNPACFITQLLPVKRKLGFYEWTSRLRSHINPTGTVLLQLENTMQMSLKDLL
Rango complex inh: Rango-importin beta binding inhibition | 340,000 tested, 0.031% active | AID 540263 | Q14974 | Potency, µM (series often up to 92.2 µM), for the others: at the highest dose inhibition of complex formation | Rango CFP/YFP FRET sensor + importin beta, 45 min; active = rising FRET ratio curve, often small or poorly fitted; inconclusive = mostly compound fluorescence or quenching in the first reads; inactive = flat curves in all reads;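 note: potency is the fitted concentration of half-maximal effect; 0% = DMSO wells and 100% = buffer wells lacking importin beta; nearly all actives have a fitted effect of over 15% in size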
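FRET biosensor Rango (snurportin 1 IBB between N-terminal EYFP and C-terminal Cerulean), 50 nM in PBS/1 mM DTT/0.02% Tween-20/0.1% BSA, preincubated 5 min RT with compound; 0.125 microM importin beta added, 45 min RT, CFP/YFP FRET ratio read.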
Starred values were filed as active, the others as inactive; ? = inconclusive; nt = no result given; & = joins results of further samples.

No.	Molecule	Rango release inh	miR-21 reporter	GLA inh pH 4.5	Rango complex inh
1	COC(=O)c1ccc(NC(=O)CSc2nc3ccc(N4C(=O)C5C6C=CC(C6)C5C4=O)cc3s2)cc1 (configuration not stated)	-14%	?	-15	-0.8%
2	O=P(O)(O)Oc1ccccc1P(=O)(c1ccccc1)c1ccccc1	16%	-3%	nt	0.2%
3	CCCCc1cc(=O)oc2cc(OCC(=O)N3C[C@H]4C[C@@H](C3)c3cccc(=O)n3C4)c(Cl)cc12	5%	-1%	nt	-3.1%
4	CC(=O)OC(C)(C)/C=C/C(=O)[C@](C)(O)[C@H]1[C@H](O)C[C@@]2(C)[C@@H]3CC=C4[C@H](C[C@H](O)C(=O)C4(C)C)[C@]3(C)C(=O)C[C@]12C	-3%	?	-2	-0.2%
5	CCc1c(C)nc(N)nc1N1N=C1SCC(=O)OC	5%	5%	7	-1.9%
6	CC(=O)O[C@H]1C[C@@H]2CC[C@@H]3[C@H](CC[C@]4(C)C(=O)CC[C@@H]34)[C@@]2(C)C[C@@H]1OC(C)=O	-10%	nt	nt	-1.4%
7	O=c1c2ccccc2nc(CSc2ncnc3nc[nH]c23)n1-c1ccccc1Cl	20%	-16%	-2	2.7%
8	CCCNC(=O)N1[C@H]2CC[C@@H]1C(C(=O)OC)=C(c1ccc(-c3ccccc3)c(F)c1)C2	7%	nt	nt	0.8%
9	O=C(Oc1ccc2ccccc2c1Cl)N1CCCC1	-5%	-19%	-6	-3.0%
10	O=C1/C(=C/c2cccc([N+](=O)[O-])c2)N2CCC1CC2	0%	3%	-7	3.0%
11	COC(=O)C1=C(c2ccccc2)C[C@@H]2CC[C@H]1N2C(=O)N1CCCC1	0%	nt	nt	0.1%
12	O=C(COc1ccccc1)Nc1ccc(Cl)cc1C(=O)c1ccccc1	5%	-2%	7	-1.6%
13	CN1C2CCC1C(C(=O)O)C(OC(=O)c1ccccc1)C2 (configuration not stated)	2%	nt	nt	-1.3%
14	C#CC[N+]1(C)[C@@H]2CC[C@H]1CC(OC(=O)C(CO)c1ccccc1)C2 (some centres not stated)	23%	-8%	nt	0.5%
15	CN(C)c1ccc(NC(=O)CN2C(=O)CN=C(c3ccccc3)c3cc(Cl)ccc32)cc1	24%	-1%	-4	-1.3%
16	Cc1cc(OC(C)C(=O)NCC(O)c2ccccc2)c2c3c(c(=O)oc2c1)CCC3 (configuration not stated)	9%	0%	nt	-5.0%
17	CC[N+](CC)(CC#CCO)CC#Cc1ccccc1	-1%	0%	0	-2.4%
18	CC1c2ccccc2-n2nncc2CN1CC1CCCCC1 (configuration not stated)	?	nt	nt	2.5%
19	O=C(C1CCCN1S(=O)(=O)c1cccc2nsnc12)N1CCN(c2ccccc2)CC1 (configuration not stated)	?	-2%	nt	0.1%
20	N[C@@H](Cc1cc(Br)c(O)c(Br)c1)C(=O)O	nt	0%	-5	nt
21	C[C@]12CC[C@H]3[C@@H](CCC4=CC(=O)CC[C@@]43O)[C@@H]1CCC2=O	-2%	0%	nt	-0.2%
22	O=c1[nH]c(=O)n(CCc2ccc(F)cc2)c(O)c1C=NCCCn1ccnc1	-9%	-4%	1	1.3%
23	COC(=O)C1=C(c2cccc(OC)c2OC)C[C@@H]2CC[C@H]1N2C(=O)NC1CCCCC1	?	nt	nt	?
24	CC1=C(C(=O)OC(C)C)[C@]2(C(=O)N(CC(N)=O)c3ccccc32)C(C#N)=C(N)O1	-1%	-2%	-1	-1.5%
25	COC(=O)C1=C(c2cc3ccccc3s2)C[C@@H]2CC[C@H]1N2C(=O)NCc1cccc2ccccc12	5%	nt	nt	-2.1%
26	CC1CN(CCc2ccccc2)CC(C)O1 (configuration not stated)	1%	1%	-7	0.0%
27	COC(=O)C1C(O)C(C)C(O)C(C)/C=C\C=C(/C)C(=O)Nc2c(C)c(OC(C)=O)c3c(c2O)C(=O)C(C)=C2OCOC(=C23)/C(C)=C/C(C)(O)C(O)C(C)C1O (configuration not stated)	-17%	6%	-11	-1.4%
28	COc1cc(C(=O)Nc2ccc(Br)cc2C(=O)c2ccccc2Cl)cc(OC)c1OC	5%	-3%	4	-2.5%
29	COc1ccc(S(=O)(=O)NC(CC(=O)N2CCC3(CC2)OCCO3)C(C)C)cc1 (configuration not stated)	9%	1%	3	-0.3%
30	C=C1CC[C@@]2(O)[C@H]3Cc4ccc(O)c5c4[C@@]2(CCN3CC2CC2)[C@H]1O5	-8%	-1%	6	-0.3%
31	CC(Cc1ccccc1)NCc1ccccc1O (configuration not stated)	2%	-2%	1	-0.7%
32	Cc1ccc(/C=C2/C(=O)NC(=O)N(CCc3ccc(F)cc3)C2=O)o1	-6%	-5%	10	2.2%
33	CC(=O)c1ccc(OCC(=O)N2CCCC(N3CCN(c4ccccc4C)CC3)C2)cc1 (configuration not stated)	-12%	12%	nt	-3.0%
34	O=C1OC(c2ccc(Cl)cc2)=N/C1=C\N1CC2CC(C1)c1cccc(=O)n1C2 (configuration not stated)	2%	-5%	1	1.9%
35	CC1(C)CC2CCC(O)C2C(CCO)N1 (configuration not stated)	10%	nt	nt	1.7%
36	CC1C(c2cccs2)=[N+]([O-])C(C)(C(=O)c2cccs2)N1O (configuration not stated)	1%	-3%	?	0.5%
37	CC(CC(C)(C)N1CC1)=NO	0%	nt	nt	?
38	C/C=C1/CN2[C@@H]3C4CO[C@@H]3c3c([nH]c5cc(OC)ccc35)[C@@H]2CC14 (some centres not stated)	13%	nt	nt	17%
39	COCCCNC(=O)c1c(NC(=O)c2ccccc2Cl)n(Cc2ccccc2)c2nc3ccccc3nc12	?	-1%	4	?
40	Cc1ccnc(-n2c(C)nc3ccccc3c2=O)c1	4%	-53%	1	-0.1%
41	Cc1cc2ccccc2n1CCNC(=O)COc1ccccc1	?	-3%	3	?
42	CCOP(=O)(OCC)C(NC(=O)c1ccc(OC)cc1)C(Cl)(Cl)Cl (configuration not stated)	7%	2%	-16	3.2%
43	Cc1cc(=O)oc2cc(OCC(=O)N3CCN(C(C)c4ccccc4)CC3)c(Cl)cc12 (configuration not stated)	-36%	nt	nt	?
44	O=C(COc1ccc(Cl)cc1)N1CCN(C2CCCC2)CC1	-14%	-6%	nt	-0.2%
45	Cc1c(N=Cc2c(O)n(CCc3ccccc3)c(=O)[nH]c2=O)c(=O)n(-c2ccccc2)n1C	-17%	-2%	-3	?
46	COC(=O)C1=C(c2cc3ccccc3o2)C[C@@H]2CC[C@H]1N2C(=O)NC(C)C	1%	nt	nt	3.3%
47	CN(Cc1ccccc1)C1CCCN(C(=O)COc2ccccc2Cl)C1 (configuration not stated)	-1%	0%	nt	-0.7%
48	CC1C(C)N1CC(O)Cn1ccnc1[N+](=O)[O-] (configuration not stated)	14%	-3%	2	3.3%
49	CCOC(=O)C1CCN(/C=C2/C(=O)NC(=O)N(Cc3ccco3)C2=O)CC1	-6%	1%	7	?
50	Cc1ccccc1-n1c(-c2ccoc2)nc2ccccc2c1=O	-2%	6%	-4	-0.9%
51	CC(=NCc1cccnc1)c1c(O)n(-c2ccc(Cl)cc2)c(=O)[nH]c1=O	6%	6%	-6	0.3%
52	CN(C)C(=S)SSC(=S)N(C)C	4%	?	-1&1	5.6%
53	CN1C(=O)C(=Cc2ccc(N3CCCCCC3)cc2)C(=O)N(C)C1=O	-13%	7%	-7	?
54	N=C1c2ccccc2CN1NC(=O)c1ccc(Cl)cc1	-1%	-11%	10	-3.8%
55	COC(=O)C1=C(c2ccc(F)cc2OCc2ccccc2)C[C@@H]2CC[C@H]1N2C(=O)NCc1ccc2c(c1)OCO2	-4%	nt	nt	4.6%
56	CC(C)CC(C)N (configuration not stated)	-7%	nt	nt	4.2%
57	CCOC(=O)C1(CCc2ccccc2)CCN(Cc2ccc3c(c2)OCCO3)CC1	-8%	-2%	?	0.7%
58	COC(=O)C1=C(c2cccc3c2S(=O)(=O)c2ccccc2-3)C[C@@H]2CC[C@H]1N2C(=O)N1CCc2cc(OC)c(OC)cc2C1	1%	nt	nt	-5.1%
59	Oc1c(Cl)cccc1Cc1cc(Cl)cc(Cl)c1O	3%	nt	nt	-1.0%
60	Cc1ccnc2c1NC(=O)c1cccnc1N2C1CC1	10%	2%&4%	-4&4	?

Further results.
No.	Molecule	Rango release inh	miR-21 reporter	GLA inh pH 4.5	Rango complex inh
61	CSc1ncc(Br)c(N2CC2)n1	-15%	nt	nt	0.8%
62	COC(=O)C1=C(c2c(C)noc2C)C[C@@H]2CC[C@H]1N2C(=O)N1CCC(O)(c2ccc(Cl)cc2)CC1	10%	nt	nt	0.0%
63	Cc1cc(S(=O)(=O)NC(C)C)ccc1OCC(=O)N1CCN(Cc2ccc3c(c2)OCO3)CC1	-11%	22%	-8	2.2%
64	Brc1ccc2c(c1)C(OC1CN3CCC1CC3)c1ccccc1CS2 (configuration not stated)	12%	?	-1	6.1%
65	CCCC12CN3CN(C1)CC(CCC)(C3)C2O (configuration not stated)	-7%	-3%	-13	?
66	O=C1NC(=O)N(Cc2ccccc2Cl)C(=O)/C1=C/N1CCOCC1	-16%	0%	-5	?
67	Cc1[nH]c2ccccc2c1C(=O)C(=O)N1CC2CC(C1)c1cccc(=O)n1C2 (configuration not stated)	1%	4%	-5	1.6%
68	Cc1ccc2[nH]c(=S)n(-c3cccnc3)c(=O)c2c1	-6%	1%	6	-3.6%
69	COc1ccc2[nH]c(C)c(CCNCc3cccnc3)c2c1	?	nt	nt	?
70	CCCCc1ncc(CN2CCCC(C(=O)c3ccc(SC)cc3)C2)[nH]1 (configuration not stated)	15%	14%	-1	-5.8%
71	CCc1ccccc1NC(=O)CNCc1ccccc1	-11%	-9%	8	1.9%
72	COC(=O)C1=C(c2ccc(OC(F)(F)F)cc2)C[C@@H]2CC[C@H]1N2C(=O)N1CCC(C)CC1	2%	nt	nt	0.9%
73	CCN(CC)C(=O)c1ccc(NC(=O)CNC(C)c2cccc3ccccc23)cc1 (configuration not stated)	-7%	0%	nt	4.8%
74	Cc1ccc(CN2C(=O)NC(=O)C3(Cc4c(nc5ccccn5c4=O)N4CCCCCC43)C2=O)cc1 (configuration not stated)	-10%	-3%	-6	1.5%
75	Cn1c(O)c(C(=Nc2ccc(F)cc2)c2ccccc2)c(=O)n(C)c1=O	-4%	-4%	-1	1.0%
76	COc1cc2cc(C(=O)N3CC(COS(C)(=O)=O)c4ccc(O)cc43)[nH]c2c(OC)c1OC (configuration not stated)	-13%	nt	nt	-2.4%
77	Cn1c(C(=O)N2CCC3(CC2)OCCO3)cc2c(=O)n(C)c3ccccc3c21	-8%	-3%	1	-2.8%
78	Cc1ccc(-n2c(O)c(/C=N/N3CCOCC3)c(=O)[nH]c2=S)cc1	21%	-5%	4	?
79	COc1ccc(NC(=O)c2cn(CCC#N)nc2-c2ccccc2)cc1	5%	3%	nt	-0.1%
80	CC1(C)CC2CC(C)(CN2S(=O)(=O)c2cccc(C(=O)OCC(=O)NC(N)=O)c2)C1 (configuration not stated)	-5%	nt	nt	?
81	COc1cc(OC)c2c(c1)OCC1CON(C)C21 (configuration not stated)	-6%	-1%	2	6.7%
82	COc1ccc(OC(=O)Nc2ccc([N+](=O)[O-])cc2OC)cc1	13%	-4%	3	3.8%
83	Cc1ccc(CSc2n[nH]c(N)n2)cc1	?	-17%	-1	-4.2%
84	COc1cc2c(cc1C=O)OCO2	20%	-4%	-3	3.2%
85	O=C(c1c[nH]c2ccc(S(=O)(=O)N3CCOCC3)cc2c1=O)N1CCC2(CC1)OCCO2	-10%	-1%	18	-0.6%
86	COc1ccc(CCn2c(O)c(/C=N/N3CCCCC3)c(=O)[nH]c2=O)cc1OC	0%	-3%	-7	-5.0%
87	COc1ccc(C=C2C(=O)NC(=S)NC2=O)cc1OC	29%	nt	nt	-2.3%
88	Cc1nc2ccsc2c(=O)n1-c1ccccc1Cl	13%	nt	nt	-1.4%

A different layout for two compounds above:
46. COC(=O)C1=C(c2cc3ccccc3o2)C[C@@H]2CC[C@H]1N2C(=O)NC(C)C
  Rango release inh = 1%
  miR-21 reporter = nt
  GLA inh pH 4.5 = nt
  Rango complex inh = 3.3%

34. O=C1OC(c2ccc(Cl)cc2)=N/C1=C\N1CC2CC(C1)c1cccc(=O)n1C2 (configuration not stated)
  Rango release inh = 2%
  miR-21 reporter = -5%
  GLA inh pH 4.5 = 1
  Rango complex inh = 1.9%

Screens: PubChem BioAssay, National Center for Advancing Translational Sciences (NCATS)

The list is partial; count on the stated rates, not on these rows.
